Screening data as filed in PubChem.
2A firefly: lowers the firefly signal of an FMDV 2A StopGo reporter. HEK cells with a luciferase reporter of 2A StopGo recoding. Potency, µM (titrated, usually from 57.5 µM), for the others: at the highest dose signal change, negative = less light. hit rate 0.23% among 120,000. AID 1745856; active = well fitted falling curve with a large enough effect; inconclusive = small, poorly fitted or top-dose-only effect; inactive = no such curve, though single readings can be large or run the other way; also: nearly all actives have a fitted effect of over 60% in size; overnight with compound
StopGo RLuc: FMDV 2A StopGo reporter, Renilla signal. HEK cells with a luciferase reporter of 2A StopGo recoding. Potency, µM (titrated, usually from 57.5 µM), inactives show top-dose signal change, negative = less light. hit rate 0.32% among 120,000. AID 1745857; active means well fitted falling curve with a large enough effect; inconclusive means small, poorly fitted or top-dose-only effect; inactive means no such curve, though single readings can be large or run the other way; also: nearly all actives have a fitted effect of over 55% in size; overnight with compound
* marks the source's active call; other numbers are inactive results; u = inconclusive; & = joins results of further samples; [ ] = another dose, or the depositor's remark. % is scaled to controls: 0 for no effect and ±100 for the full control effect; potency is read from the fitted curve at half-maximal effect.

SMILES	2A firefly	StopGo RLuc
Cc1cc(N2C(=O)C(=O)/C(=C(/O)c3ccc(Br)cc3)C2c2cccc(O)c2)no1 (configuration not stated)	0%	43%[activator]
CCCc1ncc(C(O)c2ccc(OC)c(OC)c2)n1C (configuration not stated)	-1%	-6%
O=C(Nc1ccc2oc(-c3ccncc3)nc2c1)c1cc(Cl)ccc1Cl	0%	-10%
CS(=O)(=O)Nc1ccccc1CNC(=O)CCS(=O)(=O)C1CCCC1	8%	-3%
CC(NC(=O)CN(C)Cc1cccs1)c1ccccc1 (configuration not stated)	1%	3%
CCOc1ccc(S(=O)(=O)n2nc(C)c(S(=O)(=O)N3CCCCCC3)c2C)cc1	11%	-6%
Cc1noc(C)c1CS(=O)(=O)c1cc(Cl)ccc1Cl	2%	-4%
O=C(Nc1cccc(C(F)(F)F)c1)C1C2C3CCC(C3)C12 (configuration not stated)	0%	u
Cc1ccccc1N(C)S(=O)(=O)c1nnc(NC(=O)c2ccco2)s1	-3%	19%
COc1ccc(CNC(=O)Cn2nc(C)c3c(C)n(-c4ccccc4)nc3c2=O)cc1OC	-11%	-12%
Cc1ccc(N(C(C)C(=O)Nc2ccc(C)c(Cl)c2)S(C)(=O)=O)cc1C (configuration not stated)	2%	25%
CCOC(=O)Cn1c(=O)c2c3c(sc2n(CCN(C)C)c1=O)CC(C)CC3 (configuration not stated)	-13%	-18%
COc1ccc(C2CCCCCN2C(=O)c2ccc(-n3cccn3)cc2)cc1 (configuration not stated)	19%	257%[activator]
CCc1ccccc1NC(=O)c1ccc2c(c1)CCCN2S(C)(=O)=O	110%[activator]	-17%
COc1ccc(OC)c(NC(=O)Cn2c(=O)oc3cc(S(=O)(=O)NCc4ccccc4)ccc32)c1	-10%	114%[activator]
Cc1nn(CC(=O)NCc2ccccc2)c(=O)c2ccccc12	-3%	-13%
CC(C)Cc1ccc(-c2cnc(CCC(=O)NC(C)c3ccc4c(c3)NC(=O)CO4)o2)cc1 (configuration not stated)	u	u
CC(=O)c1c(OS(=O)(=O)c2ccccc2-c2ccccc2)ccc2c(C)cc(=O)oc12	9%	91%[activator]
Cc1ccc(C(=O)OCc2cc(=O)n3nc(-c4cccs4)sc3n2)cc1	-2%	-6%
O=C(O)c1ccc(=O)oc1	7%	-4%

The list goes on (six carried over from the part before).
SMILES	2A firefly	StopGo RLuc
COc1ccc(OC)c(NC(=O)Cn2c(=O)oc3cc(S(=O)(=O)NCc4ccccc4)ccc32)c1	-10%	114%[activator]
Cc1nn(CC(=O)NCc2ccccc2)c(=O)c2ccccc12	-3%	-13%
CC(C)Cc1ccc(-c2cnc(CCC(=O)NC(C)c3ccc4c(c3)NC(=O)CO4)o2)cc1 (configuration not stated)	u	u
CC(=O)c1c(OS(=O)(=O)c2ccccc2-c2ccccc2)ccc2c(C)cc(=O)oc12	9%	91%[activator]
Cc1ccc(C(=O)OCc2cc(=O)n3nc(-c4cccs4)sc3n2)cc1	-2%	-6%
O=C(O)c1ccc(=O)oc1	7%	-4%
CCOc1ccc(CCNC(=O)c2cc3c(-c4ccccc4F)nn(C)c3s2)cc1	-6%	-8%
COc1cc(C(=O)Nc2nc3nc(-c4ccccc4)cc(=O)n3[nH]2)cc(OC)c1OC	-8%	-6%
COc1ccc(NC(=O)CCc2nnc3n(Cc4ccc(C)cc4)c(=O)c4ccccc4n23)cc1	0%	-18%
CNS(=O)(=O)c1cn(CC(=O)N2CCN(c3cc(C)ccc3C)CC2)cc1S(=O)(=O)NC	-25%	-14%
CCC(=O)OC1=C(C(C)=O)N(C(C)C)S(=O)(=O)c2ccccc21	0%	42%[activator]
Fc1ccc(/C=N/N=C/c2ccc(F)cc2F)c(F)c1	27%	-4%[1.06 µM]
CCn1c(=O)c2sccc2n2c(CCCC(=O)N3CCN(c4cc(C)ccc4C)CC3)nnc12	-9%	8%
Cc1ccc(Nc2ncnc3c2nc2n3CCCC2)cc1F	67%[activator]	-11%
COCCOc1ccc(C(=O)/C=C/c2cc(OC)c(O)c(OC)c2)cc1	115%[activator]	0%
CCc1cccc(NC(=O)c2ccc3c(=O)n4nc(Nc5ccccc5OC)sc4nc3c2)c1	15%	-6%
COc1ccc(C(=O)c2c(N)c(C(=O)Nc3ccccc3)c3ccccn23)cc1	0%	-12%
CCC1=NN(C(=O)CSCc2ccccc2Cl)C(O)(C(F)(F)F)C1 (configuration not stated)	-8%	99%[activator]
COc1ccc(-c2cnc(C)o2)cc1S(=O)(=O)Nc1ccc(C)c(F)c1	25%&14%	251%&9%[activator]
CC(C)NC(=S)N/N=C/C1CCCCC1	0%	0%
Cc1c(C(c2ccc(Br)cc2)c2c(O)c3ccccc3oc2=O)c(=O)n(-c2ccccc2)n1C (configuration not stated)	18%	44%[activator]
COc1ccc2c(C)c(CCC(=O)N(C)C3CCC(C)CC3)c(=O)oc2c1 (configuration not stated)	2%	6%
CC(=O)C1(C)N(O)C(C)C(c2cccs2)=[N+]1[O-] (configuration not stated)	13%	14%
CCOC(=O)c1c(S(=O)(=O)N2CCCC(C(=O)N3CCN(c4ccccc4)CC3)C2)c(C)n(C)c1C (configuration not stated)	0%	23%
Cc1cccc(C(=O)NNc2ncnc3c2cnn3-c2ccc(C)cc2C)c1	34%[activator]	-6%
COc1cc(NC(=O)CN(C)S(=O)(=O)c2ccc3[nH]c4c(c3c2)CCCC4)cc(OC)c1OC	-11%	-7%

Rewritten as labelled records: entries from further up.
> COc1ccc2c(C)c(CCC(=O)N(C)C3CCC(C)CC3)c(=O)oc2c1 (configuration not stated)
  2A firefly: 2%	StopGo RLuc: 6%
> CCC1=NN(C(=O)CSCc2ccccc2Cl)C(O)(C(F)(F)F)C1 (configuration not stated)
  2A firefly: -8%	StopGo RLuc: 99%[activator]
> CCc1cccc(NC(=O)c2ccc3c(=O)n4nc(Nc5ccccc5OC)sc4nc3c2)c1
  2A firefly: 15%	StopGo RLuc: -6%

Ordered by count of non-hydrogen atoms (descending): part of the list above
SMILES	2A firefly	StopGo RLuc
COc1ccc(NC(=O)CCc2nnc3n(Cc4ccc(C)cc4)c(=O)c4ccccc4n23)cc1	0%	-18%
COc1cc(NC(=O)CN(C)S(=O)(=O)c2ccc3[nH]c4c(c3c2)CCCC4)cc(OC)c1OC	-11%	-7%
CC(=O)c1c(OS(=O)(=O)c2ccccc2-c2ccccc2)ccc2c(C)cc(=O)oc12	9%	91%[activator]

(next part)
SMILES	2A firefly	StopGo RLuc
COC(=O)C1=C(C)NC(=O)C1(NC(=O)c1ccccc1C)C(F)(F)F (configuration not stated)	16%&-21%	14%&-8%
CCCn1nc(SCC(=O)OCC)n2c(=O)c3c(nc12)-c1ccccc1CC3(C)CC (configuration not stated)	-8%	-16%
C[N+]1(C)CC2CCC(Cl)=C(Cl)C2C1 (configuration not stated)	-10%	-7%
Cc1ccc(O)c(NC(=O)C2=CC(c3ccco3)=NS(=O)(=O)N2C)c1	13%	u
CCCN(C(=O)C1Cc2ccccc2C(=O)O1)c1c(N)n(Cc2ccccc2)c(=O)[nH]c1=O (configuration not stated)	4%	-4%
CCNCc1ccc(-c2ccccc2)o1	15%	-2%
Oc1c(C(c2ccc(Cl)cc2)N2CCCC2)sc2nc(-c3ccco3)nn12 (configuration not stated)	41%[activator]	94%[activator]
COc1ccc(C2c3cc(OC)c(OC)cc3CC(=O)N2c2ccc(C)c(F)c2)cc1 (configuration not stated)	22%	47%[activator]
CCOC(=O)c1ccc(COC(=O)CCc2nc3ccccc3[nH]c2=O)cc1	-2%	3%
COc1ccc(CCNC(=O)CCc2c(C)nc3cc(-c4ccccc4OC)nn3c2C)c(OC)c1	u	-4%
O=c1c2cc3c(cc2nc(SCc2nc(-c4ccccc4Cl)no2)n1Cc1ccco1)OCO3	4%	-2%
COc1cccc(-c2nc(S(=O)(=O)c3ccc(C)cc3)c(N3CCCCCC3)o2)c1	-14%	40%[activator]
Cc1ccc(Cl)cc1NC(=O)Cn1nnc2sc3c(c2c1=O)CCC(C(C)(C)C)C3 (configuration not stated)	-15%	-11%
O=C(Cn1nc(Cc2ccncc2)c2ccccc2c1=O)Nc1cccc(C(F)(F)F)c1	-22%	-9%
CCCn1nc(C)cc1CN(C)c1ccc(NC(=O)c2ccc(OC)cc2)cc1C(=O)O	0%	15%
CCN(CC)CCNC(=O)c1ccc(Cn2c(SCc3ccccc3)nc3cccnc32)cc1	42%[activator]	-4%
CC(C)N(C)CC1CCN(C(=O)c2cn(Cc3ccccc3)c3ccccc23)CC1	-12%	3%
O=C(/C=C/c1cccc([N+](=O)[O-])c1)c1ccc2ccccc2c1	7%	-3%
CCC(=O)N1CCc2cc(Br)cc(S(=O)(=O)N3CCC(C(=O)Nc4ccccc4CC)CC3)c21	-5%	10%
C/C=C/c1ccc(OC)cc1	9%[11.5 µM]	-12%
COc1cc2c(cc1OC)n(CC(=O)Nc1ccc(C)cc1C)c(=O)n1nc(-c3ccccc3)nc21	-10%	0%
COc1ccc(OC)c2sc(N(CCCN(C)C)C(=O)c3ccco3)nc12	11%	0%
Cc1cc(=O)oc2cc(OS(=O)(=O)c3ccc(F)cc3)ccc12	169%[activator]	12%
CCc1nnsc1C(=O)NCC1(c2ccc(F)cc2)CCOCC1	-9%	-14%
COc1ccc(OC)c(NC(=O)C(C)n2c(=O)cc(C)c3c(C)nn(-c4ccccc4)c32)c1 (configuration not stated)	-16%	-9%
O=C(Nc1ccc(O)cc1)c1csc(NC2CC2)n1	138%[activator]	-11%
CCCn1c2ccccc2c2cnn(CC(=O)Nc3ccccc3OC)c(=O)c21	8%	-9%
O=C(/C=C/c1ccccc1O)c1ccc(-c2ccccc2)cc1	86%[activator]	158%[activator]
COc1ccc(-c2noc(-c3cccc(OCC(=O)N(C)C)c3)n2)cc1	-5%	u
CCOc1ccc(-n2c(=O)c3c4c(sc3n(CC(=O)NC(C)CC)c2=O)CCC4)cc1 (configuration not stated)	-8%	6%
O=S(=O)(c1ccc(Sc2ccc(Br)cc2)nc1)N1CCCCC1	-2%	-5%
CN(C)c1ccc(N=C=S)cc1	0%	3%
COc1cc(OC)c(NC(=O)NC(C(=O)N2CCc3ccccc32)C(C)C)cc1Cl (configuration not stated)	17%	8%
CCC(CC)NC(=O)c1cc(-c2ccccc2)nc2ccccc12	4%	13%
O=C(/C=C/c1ccccc1OC(=O)c1cccs1)c1cc2ccccc2o1	193%[activator]	225%[activator]
COc1ccc(NC(=O)COC(=O)c2ccc3ccccc3n2)cc1OC	-3%	-2%
NC(=O)c1[nH]ncc1NCc1cccnc1	4%	4%
CC(C)(C)c1ccc(Cn2c(Cc3ccccc3)nc3ccccc32)cc1	u	u
COc1cccc(C2C(C(=O)Nc3ccccn3)=C(C)Nc3ncnn32)c1OC (configuration not stated)	46%[activator]	3%
Cn1c(=O)c2c(ncn2CC(=O)N2CC(C(=O)N3CCOCC3)Oc3ccccc32)n(C)c1=O (configuration not stated)	7%	0%
COc1ccc(Cc2nnc(SC(C)c3nc4ccccc4c(=O)[nH]3)o2)cc1 (configuration not stated)	8%	0%
Cc1ccc(S(=O)(=O)N2CCCc3cc(NC(=O)c4ccc(C(F)(F)F)cc4)ccc32)cc1	29%	10%
O=C(CSc1ncc(S(=O)(=O)c2ccc(Br)cc2)c(=O)[nH]1)NCc1ccc(Cl)cc1	-21%	-6%
COc1ccc(CNC(=O)Cc2c(C)c3cc(Cl)c(OC)cc3oc2=O)cc1	-1%	-5%
CC(OC(=O)Cn1[nH]c(=O)c2ccccc2c1=O)C(=O)Nc1cccc(Cl)c1Cl (configuration not stated)	5%	-4%
O=C(CC1CCCCC1)N(Cc1ccc2cc[nH]c2c1)C1CC1	4%	31%[activator]
CCC(C)Nc1nc2c(c(=O)[nH]c(=O)n2C)n1Cc1ccccc1Cl (configuration not stated)	-9%	-13%
O=C1OCCN1/N=C/c1ccc([N+](=O)[O-])o1	3%	20%
CC1=C(C(=O)OC(C)C)C(c2ccc(C(C)(C)C)cc2)N2C(=O)CCSC2=N1 (configuration not stated)	12%	6%
COc1cc(C(=O)OCC(=O)c2ccccc2)ccc1OCc1ccc(Cl)cc1	205%[activator]	13%
Cc1ccccc1CSc1cn(CCNC(=O)c2cccs2)c2ccccc12	-12%	-20%
O=C(NCc1cccc(C(F)(F)F)c1)C1CCCN(C(=O)c2ccc(Cl)cc2)C1 (configuration not stated)	-3%	-9%[1.06 µM]
COc1cc(OC)cc(C(=O)Nc2cccc3cccnc23)c1	-3%	-6%
Cc1cc(NC(=O)CCS(=O)(=O)c2cc(Br)cc3c2N(C(=O)C2CC2)CC3)ccc1Br	24%	-12%
Cc1cccc(CNC(=O)c2ncoc2-c2cccs2)c1	0%	3%
Cc1cc(C(C)(C)C)cc(C)c1CCNC(=O)c1ccc(NC(=O)CC#N)cc1	u	-12%[1.06 µM]
Cc1ccc(N2C(=O)CCSC23C(=O)N(Cc2ccccc2)c2ccccc23)cc1F (configuration not stated)	-7%	213%[activator]
Cc1ccc(S(=O)(=O)N2CCN(Cc3cn4cccc(C)c4n3)CC2)cc1	18%	22%
Clc1cccc(CSc2nc3ncccc3o2)c1	0%	-3%
Cc1cccc(C)c1OCC(O)Cn1cnc2ncccc2c1=O (configuration not stated)	17%	-2%
(list continues)
SMILES	2A firefly	StopGo RLuc
CN(Cc1cccs1)C(=O)/C=C/c1nc2ccccc2s1	15%	74%[activator]
CC(C)NC(=O)CCn1cnc2sc3c(c2c1=O)CCCC3	23%	-5%
CC(=O)c1cccc(Nc2nc3ccccc3nc2NS(=O)(=O)c2ccccc2)c1	1%	9%
Cc1ccc(CCN2C(=O)CCC2(C)C(=O)NCc2ccccc2)cc1 (configuration not stated)	-9%	-5%
Cc1ccc(C(=O)Nc2ccc(N(C)C)cc2)cc1C	166%[activator]	32%

Some of the compounds tested. The share of hits here may be higher or lower than overall.
